# Cruzain Triton = qHTS Assay for Promiscuous and Specific Inhibitors of Cruzain (with detergent); purified cruzain, Z-FR-AMC fluorescence, 0.01% Triton; Potency, µM, for the others: max response, negative = inhibition, most hits filed as inhibitors; 0.43% of 200,000 active; active means well fitted curve in the direction sought with a large enough effect; inconclusive means small, poorly fitted or top-dose-only effect, or another doubt; inactive means no such curve, though single readings can be large; an effect the other way counts as inactive or inconclusive;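 further: plate controls were neutral wells for no effect and buffer without enzyme for full effect; nearly all actives have a fitted effect of over 40% in size; top concentration of the series not given in the record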
# Target sequence (P25779 123-467 limits assumed): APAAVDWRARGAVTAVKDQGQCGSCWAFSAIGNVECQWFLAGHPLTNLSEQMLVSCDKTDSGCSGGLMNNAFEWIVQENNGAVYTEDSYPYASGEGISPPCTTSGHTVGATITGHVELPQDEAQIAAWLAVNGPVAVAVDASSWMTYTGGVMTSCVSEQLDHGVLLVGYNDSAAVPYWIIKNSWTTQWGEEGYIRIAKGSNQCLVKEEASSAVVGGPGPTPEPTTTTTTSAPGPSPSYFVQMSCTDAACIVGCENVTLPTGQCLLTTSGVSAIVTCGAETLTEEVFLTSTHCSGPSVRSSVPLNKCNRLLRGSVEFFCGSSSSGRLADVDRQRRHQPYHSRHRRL
#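 In this qHTS format, compounds are incubated with 1.5 nM cruzain for 15 min at room temperature before 2 uM Z-FR-AMC is added. Release of AMC is followed at 360/450 nm, and progress is taken as the 60 s fluorescence difference.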
# NS1 function inh = qHTS Assay for Inhibitors of Influenza NS1 Protein Function; S. cerevisiae slowed by influenza A NS1, growth recovery by OD600; Potency, µM (titrated, usually from 46.1 µM), for the others: at the top dose activity, positive = more growth; 0.4% of 270,000 active; AID 2326, 2010; further: actives are rising curves; nearly all actives have a fitted effect of over 50% in size
#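 Compounds were scored for reversing the slow growth caused by influenza A NS1 in S. cerevisiae, measured by optical density at 600 nm. Assay medium contained 2% galactose at pH 6.0; NS1-free yeast of the same strain were the positive control.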
# 2A StopGo = High Throughput Screening for Foot and Mouth Disease Virus Antivirals; human cells with a luciferase reporter of 2A StopGo recoding; control for the full effect not named in the record; Potency, µM (highest dose often 57.9 µM), for inactives: at the top dose signal change, negative = less light; 1.2% of 410,000 active; AID 1159524, 2015; active = well fitted falling curve with a large enough effect; inconclusive = small, poorly fitted or top-dose-only effect; inactive = no such curve, though single readings can be large or run the other way; tested in HEK293T cells; further: on the % scale 0 is the no-effect control and ±100 the full control effect; nearly all actives have a fitted effect of over 45% in size; luciferase light after 4 h
# RE007 growth inh = qHTS Assay for Inhibitors of the HIV-1 protein Vpr; 0.21% of 360,000 active; S. pombe RE007 Vpr strain, BacTiter-Glo ATP luminescence, 24 h; control for the full effect not named in the record; Potency, µM (doses to about 92.2 µM), without a hit: at the highest dose activity change, negative = less growth; active = well fitted falling curve with a large enough effect; inconclusive = small, poorly fitted or top-dose-only effect; inactive = no such curve, though single readings can be large or run the other way;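 further: on the % scale 0 is the no-effect control and ±100 the full control effect; nearly all actives have a fitted effect of over 50% in size; the assay follows cell death caused by Vpr and the record does not say whether a fall means rescue or toxicity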
#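 Fission yeast RE007 carrying one integrated HIV-1 vpr copy, seeded at OD 0.01 in PMG+AL medium with 23 nL pinned compound. Grown 24 h at 30 degrees; viability read by BacTiter-Glo luminescence after 5 min.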
# Lassa entry inh = qHTS for Inhibitors of binding or entry into cells for Lassa Virus; 1.2% of 300,000 active; AID 540256, 2011; Potency, µM (titrated, usually from 37.9 µM), for inactives: at the highest dose activity change, negative = inhibition, usual class: inhibitors; Lassa virus pseudotype entry inhibition, cell reporter; control for the full effect not named in the record; active means well fitted inhibition curve with a large enough effect; inconclusive means small, poorly fitted or top-dose-only effect, or effect the other way; inactive means flat fitted curve, though single readings scatter; tested in HEK293 cells; further: on the % scale 0 is the no-effect control and ±100 the full control effect; nearly all actives have a fitted effect of over 50% in size; luciferase read-out
# Cruzain noTriton = qHTS Assay for Promiscuous and Specific Inhibitors of Cruzain (without detergent). purified cruzain, Z-FR-AMC fluorescence, no detergent. AID 1476, 2009. 2.3% of 200,000 active. Cruzipain (Trypanosoma cruzi), P25779. Potency, µM, for the others: max response, negative = inhibition, hits mostly inhibitors; active means well fitted curve in the direction sought with a large enough effect; inconclusive means small, poorly fitted or top-dose-only effect, or another doubt; inactive means no such curve, though single readings can be large; an effect the other way counts as inactive or inconclusive;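 further: plate controls were enzyme without inhibitor for no effect and buffer without enzyme for full effect; nearly all actives have a fitted effect of over 40% in size; top concentration of the series not given in the record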
#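 Purified cruzain at 1.5 nM, pre-incubated 15 min with compound at room temperature in 100 mM sodium acetate pH 5.5, 5 mM DTT, 0.00005% Triton X-100. Reaction started with 2 uM Z-FR-AMC; AMC fluorescence increase over 60 s gives rate.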
# SARS PLpro yeast = qHTS of Yeast-based Assay for SARS-CoV PLP; S. cerevisiae expressing SARS-CoV PLpro, growth rescue; control for the full effect not named in the record; Potency, µM (doses to about 32.9 µM), for the others: at the top dose activity, positive = growth rescue; 0.19% of 330,000 active; further: 0% is about no effect; nearly all actives have a fitted effect of over 55% in size; growth read by luminescence after 48 h
# MARV entry inh = qHTS for inhibitors of binding or entry into cells for Marburg Virus; Marburg virus pseudotyped entry inhibition, cell reporter; control for the full effect not named in the record; about a third of the inactives were read at about 46 µM; Potency, µM (titrated, usually from 37.8 µM), inactives show at the highest dose activity change, negative = inhibition, actives largely listed as inhibitors; 1.8% of 300,000 active; active = well fitted inhibition curve with a large enough effect; inconclusive = small, poorly fitted or top-dose-only effect, or effect the other way; inactive = flat fitted curve, though single readings scatter; tested in HEK293 cells; about a fifth of its hits are not listed in these tables; further: on the % scale 0 is the no-effect control and ±100 the full control effect; luciferase read-out
# * = called active by the depositor; ? = inconclusive; . = not tested or not shown; & = joins results of further samples; [ ] = another dose, or the depositor's remark. Unless noted, the call rests on the fitted dose curve; in most records, active means well fitted rising curve with a large enough effect; inconclusive means small, poorly fitted or top-dose-only effect; inactive means no such curve, though single readings can be large or run the other way. Potency means the concentration at half of the fitted maximal effect.
SMILES	Lassa entry inh	MARV entry inh	SARS PLpro yeast	Cruzain Triton	2A StopGo	NS1 function inh	RE007 growth inh	Cruzain noTriton
Cc1ccc(-n2nc(C)c(=O)c(-c3ccccc3)c2NC(=O)C(C)C)cc1	21.4%	2.9%[46.1 µM]	-0.5%	.	-1.1%	-47.6%	-1.3%	.
O=C(NCCC1=CCCCC1)C(=O)c1c[nH]c2ccccc12	?	?	20.3%	-11.3%	20.0%	-9.3%	-5.7%	-1.9%
NC(=O)c1ccccc1O	-10.4%	11.3%&11.3%&11.3%&11.3%&11.3%	1.4%	-2.4%&-1.2%&2.1%	-19.3%&5.9%	-3.8%	-10.8%[18.4 µM]	-3.4%&6.6%&-5.8%
N#Cc1c(Cl)nsc1NN	-7.2%	17.4%[46.1 µM]	-13.6%	.	10.4%	.	?	.
Fc1cccc(CN2CCN(c3ncccn3)CC2)c1	1.9%	14.9%	6.2%	2.9%	-22.2%	16.5%	-2.2%	13.5%
Cc1ncc(CC(=O)n2cc(C(=O)c3cc(F)ccc3O)cn2)s1	23.1%	11.0%	-1.3%	-2.5%	57.7%[activator]	16.2%	-8.0%	-8.8%
COc1sc(SC)cc1/C=N/NC(=O)c1ccncc1	9.1%[46.1 µM]	-13.0%[46.1 µM]	-1.1%	.	8.7%	-3.3%	10.5%	.
CC(Sc1ccc(Br)cc1)C(N)=O (stereo not given)	2.2%	17.6%	-1.3%	4.6%	-1.7%	-2.4%	-0.4%	-3.3%
COc1cccc(CN(C)c2nc(-c3cccs3)nc3ccccc23)c1	-2.5%	?	-21.1%	-7.2%	0.0%	-35.5%	-5.3%	0.3%
C[C@H](NC(=O)C1CC(=O)N(c2ccc3c(c2)OCCO3)C1)C(=O)N1CCC(C(=O)O)CC1 (stereo not given in full)	.	.	-2.7%	.	-23.4%	-3.6%	15.3%	.
CCOc1ccccc1N1CC(C(=O)N(Cc2nnc(-c3ccccc3Cl)o2)C2CC2)CC1=O (stereo not given)	13.0%	?	-5.0%	.	-3.0%	.	2.1%	.
CN(C)CCNC(=O)C(C(=O)c1ccccc1)n1ccccc1=O (stereo not given)	2.2%	-2.7%	-8.3%	-0.9%	9.5%	-1.5%	-11.0%	5.6%
CCC(=O)N1CCCc2cc(S(=O)(=O)NCc3cccs3)ccc21	-13.2%	-24.7%	-0.5%	2.2%	29.3%	2.7%	4.7%	-5.4%
CCC(C)c1ccc(-c2cc(C(=O)OCC(=O)Nc3cc(C)on3)c3ccccc3n2)cc1 (stereo not given)	1.58µM*	?	3.8%	-1.1%	6.2%	4.4%	16.5%	?
Cc1ccc(-c2nc3ccccc3c(=O)n2CCCN2CCOCC2)cc1	-3.6%	0.8%	0.1%	-4.8%	20.3%	0.7%	1.4%	-3.0%
O=C(O)c1ccc(S(=O)(=O)NC2CCCCCC2)cc1	.	.	-1.5%	.	-4.1%	-5.4%	-7.0%	.
CCOc1ccccc1N1CCN(C(=O)c2csc(C)c2CC)CC1	7.5%[46.1 µM]	?	-0.4%	.	2.7%	.	2.9%	.
COc1ccc(Cc2nnc(NC(=O)Cc3cccs3)s2)cc1	?	-4.9%	-9.5%	-21.8%	-1.4%	-0.4%	3.1%	20µM*
CCN(C(=O)CSc1nnc(-c2ccco2)n1C)c1c(N)n(Cc2ccccc2)c(=O)[nH]c1=O	2.8%	-20.8%	-1.8%	.	-12.8%	.	-9.3%	.
Cc1ccc(NC(=O)CN(C)C(=O)CNC(=O)c2ccc3c(c2)OCO3)cc1	17.8%[46.1 µM]	-10.4%	-4.2%	.	0.7%	.	-20.8%	.
NS(=O)(=O)c1ccc(CCNC(=O)C2CCC(CNS(=O)(=O)c3ccc(Br)s3)CC2)cc1 (stereo not given)	-8.2%	?	0.1%	.	-11.8%	.	10.1%	.
COc1cccc(NC(=O)c2ccccc2-c2ccccc2)c1	-0.2%[46.1 µM]	12.3%[46.1 µM]	7.6%	.	-7.3%	-3.9%	-3.4%	.
CCCN1C(=O)C(NC(C)=O)c2ccccc21 (stereo not given)	-28.0%	8.5%	20.0%	3.9%	15.0%	8.3%	-13.3%	6.7%
Cc1ccc(C2N(c3ccccc3)C(=O)N3CCCN23)cc1 (stereo not given)	.	.	0.0%	.	-6.4%	7.6%	1.1%	.
COc1cc(CNc2ccc(O)cc2)cc(Br)c1OCc1ccccc1F	?	?	-18.0%	-8.3%	?	-22.6%	-12.1%	4.3%
COc1ccc(C(=O)COC(=O)CNC(=O)c2ccc(Cl)cc2Cl)c(OC)c1	17.2%	5.1%[46.1 µM]	-6.2%	.	-13.5%	.	-5.6%	.
CCN(C(=O)COC(=O)c1cc(NS(=O)(=O)c2ccc(Cl)c([N+](=O)[O-])c2)ccc1O)C1CCCCC1	-13.1%	1.0%	7.0%	-1.8%	-14.1%	-22.5%	-15.4%	?
Cc1ccc(C)c(NC(=O)CN2C(=O)C3(SCC(=O)N3c3ccc(C)c(C)c3)c3ccccc32)c1 (stereo not given)	-1.5%[46.1 µM]	.	.	-3.3%	-11.2%	.	.	-6.6%
O=C(c1cccnc1)n1nc(NCc2ccccc2)nc1NCc1ccccc1	0.4%[46.1 µM]	-14.3%[46.1 µM]	-0.6%	.	5.8%	-41.7%	3.4%	.
O=C(NCc1ccc(Cl)cc1)c1cc(-c2cccs2)on1	0.3%	4.7%	-4.8%	-4.1%	51.3%[activator]	-9.4%	7.1%	?
CC(N=C1NS(=O)(=O)c2ccccc21)C(=O)NCc1ccc2c(c1)OCO2 (stereo not given)	18.1%	10.4%[46.1 µM]	-5.1%	1.6%	-10.8%	5.9%	14.7%	-7.6%
CC1=C(C(=O)Nc2ccccc2F)C(c2ccsc2)C2=C(CC(C)(C)CC2=O)N1 (stereo not given)	?	-12.1%	-0.6%	-6.1%	24.8%	10.9%	13.1%	12.4%
C=CCOc1c(Cl)cc(/C=N/O)cc1OC	19.4%	1.5%	-2.5%	-0.3%	.	4.6%	-7.0%	-8.9%
Cc1cc(C)nc(N2CCCC(C(=O)Nc3cc(F)ccc3C)C2)n1 (stereo not given)	-4.6%	-10.2%	-4.3%	8.1%	-22.0%	-1.7%	-10.3%	12.6%
CCCOc1ccc2c3c(c(=O)oc2c1)CCCC3	-5.2%	?	-2.5%	-5.1%	-0.5%	-82.9%	-21.5%	11.4%
CC(C)OP(=O)(c1ccc(N(C)C)cc1)C(O)c1cccnc1 (stereo not given)	.	.	0.4%	.	-0.9%	-0.7%	8.4%	.
Cc1nn(C(C)C(=O)NCc2ccc(Cl)cc2)c(=O)c2cc3occc3n12 (stereo not given)	.	.	1.9%	.	10.9%	-3.6%	-1.7%	.
Cc1ccc(-c2c(C#N)c(N)nc3c2CCCC3)s1	1.3%	-2.7%	1.5%	9.2%	6.2%	-3.4%	14.3%	-20.4%
NC(=O)CSc1nnc(-c2cnccn2)n1Cc1ccco1	-0.6%[46.1 µM]	-12.5%[46.1 µM]	3.1%	.	3.7%	0.8%	23.0%	.
COc1cc2c(c(OC)c1OC)C(c1ccccc1C)CC(=O)O2 (stereo not given)	.	.	-3.1%	2.3%	-20.6%	.	5.6%	1.7%
Cc1c(S(=O)(=O)N2CCN(c3cccc(C(F)(F)F)c3)CC2)c(=O)n(C)c(=O)n1C	.	6.2%	5.4%	-1.9%	0.0%	-8.4%	-14.2%	13.1%
CCOc1ccc(CN(C)CC(=O)Nc2ccccc2C(=O)NC2CC2)cc1	0.3%	-15.1%	-5.5%	.	-10.7%	.	-20.0%	.
COC(=O)c1ccc(COc2ccc(Cl)cc2)o1	.	.	0.3%	.	33.4%[activator]	-7.1%	0.3%	.
CCC(Cc1ccccc1)NC(=O)C1CCC(CNc2c(N3CCCC3)c(=O)c2=O)CC1 (stereo not given)	.	-4.7%	3.4%	0.8%	-22.9%	-6.3%	10.5%	-14.1%
COC(=O)c1sccc1NC(=O)Nc1cccc(Cl)c1Cl	?	-23.7%	1.1%	-0.6%	27.6%	6.5%	-4.2%	3.0%
O=C(c1cccs1)N1CCN=C1SCc1ccc(F)cc1	.	.	0.8%	.	-11.0%	-2.0%	-10.3%	.
Cc1nc2ccccc2cc1OCc1ccccc1	-20.6%	-9.7%	-1.5%	-2.8%	-28.3%	-117.3%	-10.1%	0.2%
C/C(=C1/SC(N2CCOCC2)=NC1=O)c1ccc(Br)cc1	10.0%	?	-4.5%	-2.7%	-9.1%	4.6%	11.9%	0.9%
CCCNC(=O)COC(=O)CCC(=O)c1cccs1	-0.5%	-13.2%	-9.6%	-0.5%	2.4%	2.5%	2.8%	-1.0%
CCCCn1c(N)c(N(CCOC)C(=O)COC(=O)COc2c(C)cccc2C)c(=O)[nH]c1=O	11.2%	-6.4%[46.1 µM]	-3.0%	.	-11.6%	.	-18.8%	.
Cc1ccc(-c2nc3ccccc3c(=O)n2-c2cccc(C)n2)cc1	6.1%	?	-1.6%	.	5.5%	-1.9%	2.8%	.
Cc1ccc2nc(SCC(=O)N3c4ccccc4CC3C)c(C)cc2c1 (stereo not given)	1.3%	13.8%	9.5%	2.9%	?	6.9%	-2.1%	?
CCc1ccccc1N(C)C(=O)c1cc2c(=O)oc3ccccc3c2s1	?	7.9%[46.1 µM]	.	0.5%	?	.	.	13.9%

# Fetched by structure from the list above (two):
SMILES	Lassa entry inh	MARV entry inh	SARS PLpro yeast	Cruzain Triton	2A StopGo	NS1 function inh	RE007 growth inh	Cruzain noTriton
Cc1c(S(=O)(=O)N2CCN(c3cccc(C(F)(F)F)c3)CC2)c(=O)n(C)c(=O)n1C	.	6.2%	5.4%	-1.9%	0.0%	-8.4%	-14.2%	13.1%
O=C(c1cccs1)N1CCN=C1SCc1ccc(F)cc1	.	.	0.8%	.	-11.0%	-2.0%	-10.3%	.
